GalR3 antag – blocks the human galanin receptor 3; HEK293 GalR3-CNG cAMP membrane potential fluorescence; galR3 body fused to GalR1 C-terminus; inhibition, % at 3 µM; actives 0.44% (n = 360,000);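 active = inhibition above the screen-wide average plus 3 SD, cut at about 13% in these data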;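 note: forskolin and galanin both at EC90 stimulate the cells; cAMP rise reported by CNG channel membrane potential dye signal; 0% = forskolin plus galanin with DMSO and 100% = forskolin alone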
NALP1 yeast inh – NALP1 inhibition; inhibition, % at 10 µM; S. cerevisiae NALP1/ASC/caspase-1 growth, X-gal OD620, 72 h; actives 0.61% (n = 280,000); in the data active = inhibition mostly above about 24%, no sharp cut-off; inactive = mostly below about 32%; note: some compounds called inactive have numbers as strong as hits
MEKK3 PB1 HTS – modulators (inhibitors or enhancers) of MEK5 binding to human MEKK3 PB1 domain. Q99759. bead-based flow cytometry, Alexa488-MEK5 binding to MEKK3; actives lie on both sides; 0 = blocked by unlabeled MEK5, 100 = vehicle. binding response (% of control), % at 10 µM. actives 1.4% (n = 290,000). AID 1529;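 active = binding response more than 3 SD above or below the average of its plate-row segment, actives on both sides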;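 note: Alexa488 bead fluorescence after subtracting the streptavidin-only scavenger bead signal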
Target sequence (Q99759 whole entry, looked up, the tested form may be a part): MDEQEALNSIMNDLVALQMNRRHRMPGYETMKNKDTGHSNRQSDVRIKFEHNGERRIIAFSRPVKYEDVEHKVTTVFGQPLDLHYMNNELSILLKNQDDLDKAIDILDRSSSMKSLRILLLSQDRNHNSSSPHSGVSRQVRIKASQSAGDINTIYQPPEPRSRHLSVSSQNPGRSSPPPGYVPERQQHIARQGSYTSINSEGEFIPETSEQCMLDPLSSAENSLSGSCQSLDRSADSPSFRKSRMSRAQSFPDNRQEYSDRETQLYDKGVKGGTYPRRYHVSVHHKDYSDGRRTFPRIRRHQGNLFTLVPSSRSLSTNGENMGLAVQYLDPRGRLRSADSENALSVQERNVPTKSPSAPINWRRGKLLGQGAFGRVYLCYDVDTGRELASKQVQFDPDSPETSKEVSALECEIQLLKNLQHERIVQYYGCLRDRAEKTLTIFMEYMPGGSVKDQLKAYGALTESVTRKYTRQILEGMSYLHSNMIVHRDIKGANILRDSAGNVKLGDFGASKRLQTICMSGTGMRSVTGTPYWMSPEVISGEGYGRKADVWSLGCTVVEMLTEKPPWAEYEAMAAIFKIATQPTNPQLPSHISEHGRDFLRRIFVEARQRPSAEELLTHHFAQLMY
MEKK2mut PB1 HTS – signal of MEK5 binding to mutant human MEKK2 PB1 domain. percent response, % at 10 µM. actives 0.35% (n = 290,000). bead flow cytometry, Alexa488-MEK5 binding to MEKK2 mutant; in the data active = percent response above about 24%, passing the limit was not always enough; note: inactives centre near 1; some results filed as inactive read as strong as hits; reference of the scale not given here
PHOSPHO1 inh – PHOSPHO1 (human) inhibition; Q8TCT1; recombinant PHOSPHO1, absorbance phosphatase assay; inhibition, % at 13.3 µM; actives 1.1% (n = 290,000); AID 1565; in the data active = inhibition above about 60%
MEKK2wt PB1 HTS – raises or lowers MEK5 binding to wildtype human MEKK2 PB1 domain; Q9Y2U5; binding response (% of control), % at 10 µM; bead flow cytometry, Alexa488-MEK5 binding to MEKK2 WT; actives lie on both sides; AID 1531; actives 1.1% (n = 290,000); in the data active = binding response below about 67% or above about 130%
* = called active by the depositor; / = not tested or not shown; & = joins results of further samples. Only part of the results is shown (hit frequency here may not be typical).

Labels used below – A = GalR3 antag; B = NALP1 yeast inh; C = MEKK3 PB1 HTS; D = MEKK2mut PB1 HTS; E = PHOSPHO1 inh; F = MEKK2wt PB1 HTS
(1) O=c1[nH]c2ccccc2n1C1CCN(CCCC(c2ccc(F)cc2)c2ccc(F)cc2)CC1
  A: /	B: 40	C: 83	D: 31*	E: -1	F: 146*
(2) C=CCN1CC[C@]23c4c5ccc(O)c4OC2C(=O)CC[C@@]3(O)C1C5 (some centres not stated)
  A: /	B: /	C: 114	D: 5	E: 25	F: 113
(3) C[C@]12CC[C@H](O)C[C@@H]1CC[C@@H]1[C@@H]2CC[C@]2(C)C(=O)CC[C@@H]12
  A: -3	B: 27	C: 102	D: 5	E: 20	F: 102
(4) C[C@]12CCC(=O)C=C1CCC1C2CC[C@@]2(C)C1CC[C@]2(C)O (some centres not stated)
  A: -3	B: /	C: /	D: /	E: /	F: /
(5) C[C@]12CCC3[C@@H](CC[C@H]4C[C@@H](O)CC[C@]34C)C1CCC2=O (some centres not stated)
  A: -13	B: 19	C: 106	D: 12	E: 33	F: 108
(6) C=CCN1CC[C@]23c4c5ccc(O)c4O[C@H]2C(=O)CC[C@@]3(O)[C@H]1C5
  A: -4&4	B: 1	C: 107	D: 3	E: 28	F: 93
(7) C[C@]12CC[C@@H](O)C[C@@H]1CC[C@@H]1[C@@H]2CC[C@]2(C)C(=O)CC[C@@H]12
  A: /	B: 21	C: 87	D: 6	E: 44	F: 81
(8) NC(=O)CN1CCCC1=O
  A: /	B: 18	C: 55	D: 3	E: -16	F: 73
(9) C[C@]12CC[C@H](O)CC1=CC[C@@H]1[C@@H]2CC[C@]2(C)C(=O)CC[C@@H]12
  A: /	B: /	C: 98	D: 2	E: /	F: 100

Single records, from the list above. Order of screens: GalR3 antag | NALP1 yeast inh | MEKK3 PB1 HTS | MEKK2mut PB1 HTS | PHOSPHO1 inh | MEKK2wt PB1 HTS
Shown for NC(=O)CN1CCCC1=O → / | 18 | 55 | 3 | -16 | 73
Shown for C[C@]12CC[C@H](O)CC1=CC[C@@H]1[C@@H]2CC[C@]2(C)C(=O)CC[C@@H]12 → / | / | 98 | 2 | / | 100
Shown for C=CCN1CC[C@]23c4c5ccc(O)c4O[C@H]2C(=O)CC[C@@]3(O)[C@H]1C5 → -4&4 | 1 | 107 | 3 | 28 | 93
Shown for C[C@]12CC[C@H](O)C[C@@H]1CC[C@@H]1[C@@H]2CC[C@]2(C)C(=O)CC[C@@H]12 → -3 | 27 | 102 | 5 | 20 | 102
